Ab BasE inh: BasE siderophore biosynthesis inhibition | purified BasE, fluorescence polarization binding displacement | inhibition, % (concentration not given with the values) | actives 0.1% (n = 84,000) | AID 485350;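 active = both replicates above 25% with normal brightness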;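 note: 0% = negative plate control signal and 100% = positive plate control signal; stock transfer was 100 nL into about 30 µL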
LANA-nucl inh: inhibitors of KSHV LANA binding to nucleosomes | FITC-LANA1-23 / chicken nucleosome fluorescence polarization; active compounds read low | z-score (no concentration beside the values) | actives 0.3% (n = 51,000);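 active = both repeat wells score below -2 in polarization z-score versus plate sample wells, excluding overly bright wells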;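 note: 100 nL library stock added to about 30 µL; numbers are from one replicate; some results filed as inactive read as strong as hits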
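Material: Purified chicken nucleosomes with FITC-labelled LANA N-terminal peptide (1-23) | Reagent: 50 nM FITC-LANA1-23 probe | Medium: TEN-BT buffer, pH 7.5 | Times: 10–45 min incubation at room temperature | Detection: Fluorescence polarization | Replication: Duplicates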
* = called active by the depositor; nt = no result given.

SMILES | Ab BasE inh | LANA-nucl inh
COc1ccccc1NC(=O)C1=C(C)Nc2sc(C#N)c(N)c2C1c1ccco1 (stereo unspecified) | 0.8 | -0.4
CC(C)N(C(=O)CSc1nccc(=O)[nH]1)c1ccccc1 | 1.0 | nt
O=C(/C=C/c1ccco1)N(Cc1ccccc1F)C1CCS(=O)(=O)C1 (stereo unspecified) | 0.2 | 0.11
COc1cccc(N2CC(=O)N(/N=C/c3ccccn3)CC2=O)c1 | 0.7 | 0.33
COC(=O)c1cc(COC(=O)c2ccc3ccccc3n2)oc1C | 0.1 | nt
Cc1ccc2nc(-c3ccc(NC(=O)C(C)C)cc3)oc2c1 | -1.3 | 0.34
Cc1cccc(NC(=O)Cc2ccc(NC3=NC4CS(=O)(=O)CC4S3)cc2)c1 (stereo unspecified) | -1.2 | -0.043
O=C(/C=C/c1ccccc1)Nc1nnc(CSCc2ccccc2F)s1 | 3.0 | nt
NS(=O)(=O)c1ccc(CCNC(=S)NC2CCCC2)cc1 | -0.5 | 0.28
CC(=O)Nc1c(-c2cccc(C(F)(F)F)c2)c(C(F)(F)F)nn1C | 0.6 | nt
O=C(O)C1CC=CCC1C(=O)Nc1ccc(C(=O)N2CCCc3ccccc32)cc1 (stereo unspecified) | -1.7 | 0.27
CC(C)NC(=O)N1CCc2c([nH]c3ccccc23)C1c1ccc(F)cc1 (stereo unspecified) | 1.7 | nt
O=C(CC1CCCCC1)NC1CCCC1 | 1.8 | -0.27
CCC(=O)N1CCN(c2ccc(N)cc2)CC1 | -3.6 | 0.1
COc1ccc(Br)cc1Cc1nc(C)cc(Cl)n1 | -2.5 | 0.57
CC(C)(C)C(=O)Cn1c(C(=O)O)cc2ccccc21 | -1.6 | 0.36
COc1ccc(Cl)c2c1NC(c1ccncc1)C1CC=CC21 (stereo unspecified) | -0.6 | -0.37
CN(CCO)S(=O)(=O)c1ccc2c(c1)Cc1cc(S(=O)(=O)N(C)CCO)ccc1-2 | -0.1 | 1.5
CCCCC(CC)C1OC(C)CC(C)(C)O1 (stereo unspecified) | 1.3 | 1.6
O=C(CSc1nc2ccccc2n1Cc1ccccc1)N/N=C/c1cccnc1 | 0.0 | 0.24
COc1ccc(S(=O)(=O)N2CCC(C(=O)NC3CC3)CC2)cc1Cl | -2.2 | 0.97
COc1ccc(C2CCCCCN2C(=O)Nc2ccccc2)cc1 (stereo unspecified) | 2.2 | nt
O=C(Nc1ccccc1Cl)c1cnsn1 | 1.6 | 0.26
O=C(NC1CCCC1)C(c1ccncc1)N(CCCN1CCOCC1)C(=O)c1ccc(-c2ccccc2)[nH]1 (stereo unspecified) | -4.6 | -0.17
c1ccc(OCc2nc(-c3ccccn3)n[nH]2)cc1 | 0.1 | nt
Cn1c(N)c(C(=O)c2ccc(Cl)c(S(=O)(=O)N3CCCC3)c2)c(=O)[nH]c1=O | -2.8 | nt
CC(=O)N1N=C(Cn2cnc3c(=O)n(C)c(=O)n(C)c32)OC1c1ccc2c(c1)OCO2 (stereo unspecified) | 2.2 | -1.3
N#Cc1ccccc1CN1c2cccc3cccc(c23)S1(=O)=O | -1.6 | 0.59
N#Cc1ccc(/C=N/NC(=O)Cc2cn3ccsc3n2)cc1 | 1.4 | nt
CN(C)C(=O)c1ccc(-c2cc(C(F)(F)F)n(C)n2)s1 | 1.3 | 0.063
O=C(NC1CCCCC1NC(=O)c1ccco1)c1ccco1 (stereo unspecified) | 1.2 | 0.68
COc1ccc(Br)cc1CNC(=O)CCn1c(=O)c2cccn2c2cccnc21 | -0.6 | 0.46
CCOc1ncccc1C(=O)NCC12CC3CC(CC(C3)C1)C2 | -4.4 | nt
c1ccc(N=c2scc(-c3ccccc3)n2CCN2CCOCC2)cc1 | -0.7 | nt
CCOC(=O)c1cccc(NC(=O)CCOc2ccccc2)c1 | 1.3 | nt
Cc1cc(O)c(NC(=O)c2ccccc2Cl)cc1C | 2.5 | -0.6
CCOC(=O)c1c(C)c(C)c(C)[nH]c1=S | 0.7 | -0.093
Cc1cc(NC(=O)CSC2=Nc3ccccc3CS2)no1 | -1.4 | nt
Clc1nccc2nc(N3CCCCCC3)ncc12 | 1.7 | 0.5
Cc1ccc(-n2nnc3c(SCC(=O)Nc4cc(C)on4)ncnc32)cc1 | -0.1 | -0.16
N#Cc1ccncc1Sc1ccc(Cl)cc1 | nt | -1.7
CCOc1cc(C(=O)NC2CCCCC2C)cc(OCC)c1OCC (stereo unspecified) | 2.0 | nt
Cc1ccc(S(=O)(=O)NC(=O)NC2CC(C)(C)NC(C)(C)C2)cc1 | 1.0 | nt
CC1CN(c2ccc(NS(=O)(=O)c3ccccc3)cc2C(=O)O)CC(C)O1 (stereo unspecified) | 3.1 | 0.6
O=C(O)/C=C/C(=O)N1CC=C(c2ccccc2)CC1 | -3.1 | nt
O=C(Nc1cc(Cl)cc(Cl)c1)OC1CN(C(c2ccccc2)c2ccccc2)C1 | nt | 0.51
COc1cc(Cc2ccc(N)c(OC)c2)ccc1N | -1.2 | -0.3
O=C(CN1C(=O)S/C(=C\c2cccs2)C1=O)Nc1ccc(-c2nnc3n2CCCCC3)cc1 | 4.8 | nt
CCCCNC(=O)Cn1cc(C(F)(F)F)ccc1=O | 1.5 | nt
CCOc1ccc(NC(=O)C2CC2)cc1 | 1.5 | 0.49
N/C(=N\OC(=O)Cc1cccs1)c1ccccc1 | -1.0 | -0.16
CC1=C(C)OC(C)(C(=O)/C=C/c2ccccc2)CC1 (stereo unspecified) | 0.7 | -0.064
N#CCc1nc(-c2cc3cc(Br)ccc3oc2=O)cs1 | 1.5 | nt
CCc1ccccc1N1C(=N)SC2CS(=O)(=O)CC21 (stereo unspecified) | 0.3 | -0.59
Cc1occc1-c1n[nH]c(=O)o1 | 0.3 | -0.74
CC(C)N(C(=O)Cn1cc(SCC(=O)N2CCOCC2)c2ccccc21)C(C)C | -0.1 | -0.58
COC(=O)c1ccsc1N1C(=O)c2ccccc2C1=O | 3.5 | nt
CN(C)Cc1ccc(CNCc2ccccc2OC(F)F)cc1 | -1.1 | nt
CC(OC(=O)C1(c2cccc(F)c2)CCCC1)C(N)=O (stereo unspecified) | 15 | nt
O=C(N/N=C/c1ccccc1)C1COc2ccccc2O1 (stereo unspecified) | 3.8 | -0.27

Reformatted: entries from further up.
| Compound | Ab BasE inh | LANA-nucl inh |
| --- | --- | --- |
| N#CCc1nc(-c2cc3cc(Br)ccc3oc2=O)cs1 | 1.5 | nt |
| CC1=C(C)OC(C)(C(=O)/C=C/c2ccccc2)CC1 (stereo unspecified) | 0.7 | -0.064 |
| COC(=O)c1ccsc1N1C(=O)c2ccccc2C1=O | 3.5 | nt |
| CC(OC(=O)C1(c2cccc(F)c2)CCCC1)C(N)=O (stereo unspecified) | 15 | nt |
| CCc1ccccc1N1C(=N)SC2CS(=O)(=O)CC21 (stereo unspecified) | 0.3 | -0.59 |

More structures.
SMILES | Ab BasE inh | LANA-nucl inh
CCC(=O)Nc1sc2c(c1C#N)CCCC2 | 1.6 | -0.26
N#C/C(=C(/O)CN1CCCC1)c1nc(-c2ccccc2)cs1 | 2.8 | nt
CCN(C(=O)c1cn(C)c(=O)c2cc(OC)c(OC)cc12)c1ccc(F)cc1 | 0.4 | -0.26
[N-]=C=N[n+]1ccc2ccccc2c1C(=O)c1ccc(Cl)cc1 | 5.5 | nt
CCCn1c(SC(C)C(=O)c2ccc(NS(C)(=O)=O)cc2)n[nH]c1=O (stereo unspecified) | -1.9 | nt
O=C(O)c1cn(Cc2ccccc2Cl)c2ccc(S(=O)(=O)N3CCOCC3)cc2c1=O | -1.0 | -1.5
CC(C)(C)OC(=O)N1CCC(C(=O)OCc2ccc(C#N)cc2)CC1 | 0.0 | nt
C#C[C@]1(O)CC[C@H]2[C@@H]3CCc4cc(O)ccc4[C@H]3CC[C@@]21C | nt | -0.3
Cc1cc(C)c2nc(NCCNC(=O)C3CCCCC3)c(C#N)cc2c1 | 1.6 | -0.17
CCNC(=S)Nc1ccccc1 | -0.7 | 0.62
CCOC(=O)C1CCCN(c2nc3c(S(=O)(=O)c4ccccc4)nnn3c3ccccc23)C1 (stereo unspecified) | 1.4 | -2.6
Oc1ccc(/C=N/NC(=S)Nc2cccnc2)cc1 | 9.9 | nt

4 of the compounds above, in markdown.
| canonical_smiles | Ab BasE inh | LANA-nucl inh |
| --- | --- | --- |
| C#C[C@]1(O)CC[C@H]2[C@@H]3CCc4cc(O)ccc4[C@H]3CC[C@@]21C | nt | -0.3 |
| Cc1cc(C)c2nc(NCCNC(=O)C3CCCCC3)c(C#N)cc2c1 | 1.6 | -0.17 |
| CCNC(=S)Nc1ccccc1 | -0.7 | 0.62 |
| CCOC(=O)C1CCCN(c2nc3c(S(=O)(=O)c4ccccc4)nnn3c3ccccc23)C1 (stereo unspecified) | 1.4 | -2.6 |

Continuation:
SMILES | Ab BasE inh | LANA-nucl inh
Cc1cc(-c2nn(C)c(=O)c3ccccc23)cc(C)c1O | 1.5 | nt
OC1CCCN(CC(O)COc2ccc3ccccc3c2)C1 (stereo unspecified) | 0.9 | nt
CN1CCN(C(=O)CNC(=O)C23CC4CC(CC(C4)C2)C3)CC1 | 0.7 | nt
O=C(/C=C/c1ccccc1Cl)N1CCCCC1 | 0.9 | nt
Cc1ccc(S(=O)(=O)Nc2c(C)n(C)n(-c3ccccc3)c2=O)cc1 | 1.0 | 0.25
COc1cccc(C(=O)CN2C3=NCCCN3c3ccccc32)c1 | -4.3 | nt
CCOC(=O)C(C)Oc1ccc2c(C)cc(=O)oc2c1 (stereo unspecified) | 23 | 0.74
COC(=O)C(C)Oc1ccc(N2C(=O)c3ccccc3C2=O)cc1 (stereo unspecified) | 0.1 | -0.84
CCCCNc1ccc(C(F)(F)F)cc1N | -2.9 | nt
CC(C)Oc1cccc(C(=O)N2CCCCC2)c1 | 1.1 | -1.4
Cc1sc2ncn3nc(-c4ccc5c(c4)OCO5)nc3c2c1C | -0.6 | -0.83
Cc1cc(C)nc(N/N=C/C2=C(O)CC(C)(C)CC2=O)n1 | 0.6 | nt
CN(C)S(=O)(=O)N(Cc1ccc(Br)cc1)c1ccccc1 | -3.8 | 1.6
O=C1CCN(c2cccc(F)n2)CC1 | nt | 0.35
Cn1c(=S)oc2ccccc21 | 4.8 | -0.18
CC(Oc1ccccc1)C(=O)Nc1c[nH]c(=O)[nH]c1=O (stereo unspecified) | 0.7 | 0.07
CCC(Nc1ccccc1)C(=O)N/N=C/c1ccccc1O (stereo unspecified) | 2.4 | -0.2
Cn1c(N)c(NC2CC(C)(C)NC(C)(C)C2)c(=O)[nH]c1=O | 3.1 | nt
Cc1ccc(NC(=O)Cc2nc(COC(=O)C3CC(=O)N(Cc4ccco4)C3)cs2)cc1 (stereo unspecified) | -2.7 | nt
Cc1cc(S(=O)(=O)/N=C/N(C)C)c(C)cc1Cl | -1.7 | 0.33
CN(C)CC(=O)Nc1ccc(S(N)(=O)=O)cc1 | -1.9 | nt
OCCNC(=S)NC1CC2C=CC1C2 (stereo unspecified) | 1.8 | 0.57
CN(C)C(=O)CSc1nc2ccc(C(=O)c3ccccc3)cc2[nH]1 | -0.4 | -1.8
Cc1cc(=O)n2nc(N(C)CC(=O)O)sc2n1 | 3.5 | -1.8

Four compounds already listed, ordered by the value under LANA-nucl inh, largest number first.
| structure | LANA-nucl inh |
| --- | --- |
| O=C(Nc1cc(Cl)cc(Cl)c1)OC1CN(C(c2ccccc2)c2ccccc2)C1 | 0.51 |
| COc1ccc(Br)cc1CNC(=O)CCn1c(=O)c2cccn2c2cccnc21 | 0.46 |
| Cc1cc(S(=O)(=O)/N=C/N(C)C)c(C)cc1Cl | 0.33 |
| O=C(NC1CCCC1)C(c1ccncc1)N(CCCN1CCOCC1)C(=O)c1ccc(-c2ccccc2)[nH]1 (stereo unspecified) | -0.17 |

Continued.
SMILES | Ab BasE inh | LANA-nucl inh
CC1CCCCC1NS(=O)(=O)c1ccc(S(=O)(=O)N2CCN(CCC#N)CC2)cc1 (stereo unspecified) | -0.2 | 0.19
NNC(=O)/C=C/c1ccc(-c2ccc(F)cc2)o1 | 1.9 | nt
O=c1[nH]c(=S)[nH]c(O)c1C=Nc1cc(C(F)(F)F)cc(C(F)(F)F)c1 | -0.5 | nt
C/C(=N\NC(=O)c1ccc(Br)o1)c1ccc(N)cc1 | 1.5 | -0.69
CC(CCN1CCN(C)CC1)c1ccccc1 (stereo unspecified) | 1.1 | -0.12
CCS(=O)(=O)N1CCN(Cc2nc3sc4c(c3c(=O)[nH]2)CCC(C(C)(C)C)C4)CC1 (stereo unspecified) | 1.5 | -0.15
Cc1ccc(NC(=O)CSc2ccnc(=O)[nH]2)cc1 | 4.3 | -0.26
Cc1cc(SC(=O)N/C=C/c2ccco2)c(C)cc1Cl | 0.6 | nt
CCN(CC)c1ccc(/C=N/N(CCC#N)C2=NS(=O)(=O)c3ccccc32)cc1 | 11 | -8.4*
CC(=O)Nc1cc(NC(C)=O)cc(C(=O)OCC(=O)N2CC(C)OC(C)C2)c1 (stereo unspecified) | 1.7 | nt
O=C(Oc1nnc(SCCS(=O)(=O)c2ccc(F)cc2)n1C1CC1)c1cccs1 | 1.6 | nt
O=C(CCC1CCCC1)N1CCN(C2CCCCC2)CC1 | -0.5 | 0.049
O=C(c1ccc(N2C(=O)c3ccccc3C2=O)cc1)N1CCN(S(=O)(=O)c2ccccc2F)CC1 | 1.4 | nt
Cc1ccc(NC(=O)CSC2=NC(N)=C(C#N)C3(CCCCC3)C2C(N)=O)cc1 (stereo unspecified) | -0.7 | nt
CCn1c(SC)nnc1C1CCCN(C(=O)Cc2cccnc2)C1 (stereo unspecified) | 3.5 | -1.2
O=C(NCCc1ccccc1)c1nnc(C(Nc2ccccc2)c2ccc(Cl)cc2)o1 (stereo unspecified) | 1.3 | 0.088
CC(C)(C)c1cc(N)ncn1 | -1.1 | -0.16
Cc1ccc(SCC(=O)c2ccc[nH]2)cc1C | 2.2 | nt
O=S(=O)(NCCc1ccccc1)c1ccc(F)cc1 | 1.2 | 0.16

Assay outcomes (PubChem BioAssay)

A portion of the library (hit frequency here may not be typical).
